Assay outcomes: PubChem, several laboratories
MT1-MMP act inh = inhibitors of human MT1-MMP activation | HT1080 RFP-PRO-GFP cells, GFP/RFP ratio fluorescence, overnight; percent of plate control window, DMSO zero | AID 651647 | actives 0.061% (n = 360,000) | P50281 | GFP/RFP ratio change, % at 20 µM;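 active means GFP/RFP ratio change of at least 30% with cell ATP level not reduced by more than half and red fluorescence within 50% of control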; further: strong numbers were not always called active
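Assay system: HT1080 cells carrying an RFP-PRO-GFP reporter | Dosing: Single dose of 20 µM compound, 1% DMSO final | Incubation: Cells overnight before dosing, compound overnight, 37 °C, 5% CO2 | Evaluation: GFP/RFP fluorescence ratio | Control set: DMSO and RFP-L50D-GFP cell wells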
eIF4H inh = inhibitors of RNA binding by human eIF4H; actives 0.94% (n = 290,000); eIF4H fluorescence polarization binding assay; inhibition, % at 35 µM;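 active means 50% or more with normal probe brightness, or confirmed in later tests; about a fifth of its hits are not listed in these tables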;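 further: calls also rest on retests at 20 µM and on dose response follow-up; 0% = protein and probe with vehicle and 100% = probe without protein; strong numbers were not always called active; many hits fall short of the cut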
HIV Env fusion = blocks HIV Env-driven cell-cell fusion | HeLa-JRFL Env/CEM21 cell fusion, luciferase | actives 1.1% (n = 360,000) | inhibition, % at 12.3 µM;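 active means mean replicate inhibition score of at least 50 and every replicate individually at or above 50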;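 further: 0% = plate neutral controls and 100% = maraviroc near 300 nM; one replicate is shown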
UUG fidelity = modulators of start codon recognition fidelity in yeast; activity score, % at 18.7 µM; S. cerevisiae UUG-firefly luciferase reporter, luminescence/redox ratio; actives 0.13% (n = 350,000);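 active means replicate mean at a twofold rise or more, about +100% in these data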;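 further: firefly luciferase made from a UUG start codon reports start codon fidelity; reporter light over untreated wells divided by growth signal over untreated wells; some hits fall short of that in this replicate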
PABP polyA inh = blocks human PABP binding to poly(A) RNA; fluorescence polarization; actives 1% (n = 290,000); inhibition, % at 35 µM; P11940;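 active means 50% or more with normal probe brightness, or confirmed in later tests; about a fifth of its hits are not listed in these tables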;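 further: calls also rest on retests at 20 µM and on dose response follow-up; controls were probe without protein and protein plus probe with vehicle; some compounds called inactive have numbers as strong as hits; many hits fall short of the cut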
Target sequence (P11940 whole entry, looked up): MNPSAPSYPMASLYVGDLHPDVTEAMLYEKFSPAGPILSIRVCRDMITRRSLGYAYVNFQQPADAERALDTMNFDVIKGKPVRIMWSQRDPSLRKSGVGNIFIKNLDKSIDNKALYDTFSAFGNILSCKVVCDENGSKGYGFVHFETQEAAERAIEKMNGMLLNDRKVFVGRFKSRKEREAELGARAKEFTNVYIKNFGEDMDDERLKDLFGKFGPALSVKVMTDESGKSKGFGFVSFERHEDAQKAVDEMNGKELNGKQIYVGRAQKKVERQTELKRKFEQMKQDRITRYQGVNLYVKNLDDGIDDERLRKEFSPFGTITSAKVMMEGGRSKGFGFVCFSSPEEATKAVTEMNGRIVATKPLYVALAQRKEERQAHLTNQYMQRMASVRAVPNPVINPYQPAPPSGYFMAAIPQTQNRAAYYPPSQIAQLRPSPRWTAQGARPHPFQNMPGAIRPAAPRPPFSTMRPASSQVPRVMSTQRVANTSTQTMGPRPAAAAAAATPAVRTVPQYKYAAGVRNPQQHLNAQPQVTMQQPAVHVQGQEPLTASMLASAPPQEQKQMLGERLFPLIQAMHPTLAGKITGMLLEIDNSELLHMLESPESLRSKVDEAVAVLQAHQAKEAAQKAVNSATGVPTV
CSC inhib = cancer stem cell inhibition; AID 2717; inhibition, % at 7.5 µM; cancer stem cell-like cells viability, luminescence; actives 1.1% (n = 300,000);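 active means mean at 75% or more and at least half the replicates too; tested in HMLE shEcad cells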;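 further: 0% = median of negative and 100% = median of positive control wells; the first replicate is given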
Rce1 inhib = blocks yeast Ras-converting enzyme; Q03530; actives 0.27% (n = 290,000); calls only; yeast membranes, quenched prenylated peptide cleavage fluorescence; AID 2563;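 active means fall in fluorescence gain of 50% or more versus controls, with final raw signal at or below 3038400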;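 further: plate controls were neutral control wells for no effect and wells lacking membranes for full effect; tested at 10 µM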
eIF4H inh retest = further read-out of eIF4H inh, marked with its call; inhibition, %; compound at 20 µM; confirmation average;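 mean of two retest wells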
PABP polyA inh retest = recorded beside PABP polyA inh, whose call it bears; inhibition, %; compound at 20 µM; confirmation repeats;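 mean of two retest wells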
MT1-MMP act inh RFP = further read-out of MT1-MMP act inh, marked with its call; RFP signal change, %; measured here: RFP expression control read;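 0 = vehicle wells; hits needed this value within 50% of zero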
* marks the source's active call; other numbers are inactive results; i = inactive; · = not tested or not shown; & = joins results of further samples. A portion of the library. The share of hits here may be higher or lower than overall.

SMILES	MT1-MMP act inh	MT1-MMP act inh RFP	eIF4H inh	HIV Env fusion	UUG fidelity	PABP polyA inh	CSC inhib	Rce1 inhib	others
CCCCN(Cc1ccccc1)C(=O)C1CCN(Cc2sccc2C)CC1	-4	-2	4	-21	·	-1	-5	i
COc1ccccc1CC(NC(C)=O)C(=O)N1CCN(C(=O)c2cccs2)CC1 (centres undefined)	-1	7	9	·	-5	3	-4	i
COc1ccccc1N(CC(=O)NCC(C)C)S(=O)(=O)c1cccs1	14	1	2	7	-12	8	-11	i
S=c1[nH]nc(COc2ccc(Cl)cc2Cl)n1-c1ccccc1	6	-2	9	3	-10	6	-6	i
CCN(C(=O)CSc1nc(C)nc2sc3c(c12)CCC3)C1CCS(=O)(=O)C1 (centres undefined)	1	-13	·	6	-4	·	-21	·
O=C(N/N=C/c1ccc(Br)o1)c1ccc2c(c1)OCCO2	-5	3	1	14	·	-2	15	i
CCNC(=S)NNC(=O)c1csc(CC)c1	0	0	5	-370	-12	-2	-8	i
CC(=O)NC1(c2ccccc2)CCN(c2cc(C)nc(-c3ccccc3)n2)CC1	0	-1	-8	8	-7	-3	1	i
COC(=O)C1=C(C)N(Cc2ccccc2)C(=NCC2CC2)N[C@H]1c1ccccc1	-4	-2	·	-23	-4	·	3	·
CN=C(Nc1ccc2c(c1)OCO2)SC1CC(=O)N(c2ccccc2)C1=O (centres undefined)	0	0	4	-8	-15	8	·	i
CN(C)CCCN(C(=O)c1sc2ccccc2c1Cl)c1nc2ccc(F)cc2s1	8	7	-4	-42	-14	8	4	i
Cn1c(=O)c2c(nc3n2CCS3)n(C)c1=O	3	5	-5	-10	-12	-5	-8	i
CC(C)c1ccc(C2C3CSCC=C3C(C#N)=C(N)C2(C#N)C#N)cc1 (centres undefined)	·	·	128*	·	·	120*	18	i	eIF4H inh retest=85*;PABP polyA inh retest=74*
COc1ccc(C(=O)/C=C/N(C)C)cc1OC	-2	-2	-6	·	-9	-9	-9	i
OCC1(Cc2ccc(F)cc2F)CCCN(Cc2ccc(Cl)cc2)C1 (centres undefined)	4	1	-11	-4	-3	0	54	i
CCOC(=O)C1=C(C)NC(=O)NC1c1ccc(OC)c(Cl)c1 (centres undefined)	9	1	-2	·	-8	3	·	i
CC1CCCN(C(=O)c2cc(S(=O)(=O)N3CCCCC3)c[nH]2)C1 (centres undefined)	1	-2	-5	14	-10	-16	-10	i
O=C(NCCCN1CCN(Cc2ccccc2)CC1)C1CCN(S(=O)(=O)N2CCC3(CC2)OCCO3)CC1	1	-1	14	-6	·	-4	-7	i
COc1ccc(S(=O)(=O)N2CCCC(C(=O)Nc3cccnc3)C2)cc1Cl (centres undefined)	-9	-23	3	15	-15	-1	·	i
CCOC(=O)C(NCc1ccc(OC)cc1)(NC(C)=O)C(F)(F)F (centres undefined)	1	-1	1	19	-36	10	-3	i
O=C(NN1C(=O)C2C3C=CC(O3)C2C1=O)c1cccc(O)c1 (centres undefined)	5	5	-12	·	·	-2	-22	i
O=C(Nc1cccc(Cl)c1Cl)Nn1cnnc1	2	1	-4	-12	-32	-4	-2	i
COc1cccc(-n2c(=O)[nH]cc(C(=O)Nc3ccc(NC(C)=O)cc3)c2=O)c1	0	5	-1	22	-3	4	11	i
CC1CC(C)CN(CCCNC(=O)c2cn(C)c3ccc(S(=O)(=O)N4CCCC4)cc3c2=O)C1 (centres undefined)	-4	1	-14	25	0	0	-7	i
CC(CN(C)Cc1ccccc1)OC(=O)c1ccc(F)cc1 (centres undefined)	-6	2	-10	11	·	4	-11	i

Brought forward from above: 4 entries; new compounds follow.
SMILES	MT1-MMP act inh	MT1-MMP act inh RFP	eIF4H inh	HIV Env fusion	UUG fidelity	PABP polyA inh	CSC inhib	Rce1 inhib	others
O=C(Nc1cccc(Cl)c1Cl)Nn1cnnc1	2	1	-4	-12	-32	-4	-2	i
COc1cccc(-n2c(=O)[nH]cc(C(=O)Nc3ccc(NC(C)=O)cc3)c2=O)c1	0	5	-1	22	-3	4	11	i
CC1CC(C)CN(CCCNC(=O)c2cn(C)c3ccc(S(=O)(=O)N4CCCC4)cc3c2=O)C1 (centres undefined)	-4	1	-14	25	0	0	-7	i
CC(CN(C)Cc1ccccc1)OC(=O)c1ccc(F)cc1 (centres undefined)	-6	2	-10	11	·	4	-11	i
C=CCN(c1ccccc1)S(=O)(=O)c1cccc(C(=O)N(CC)CC(=O)Nc2c(F)cccc2F)c1	-6	0	-5	·	4	3	-6	i
CCOC(=O)CC(=O)CSc1nc2cc(C)ccc2cc1C	-8	1	41	-17	-21	-2	-9	i
CN1CCN(c2ccc(NC(=O)c3ccc(Br)o3)cc2)CC1	-2	2	0	0	-26	2	20	i
CC(=O)N(C(C)=O)c1ccc(Oc2ccc(Oc3ccc(N(C(C)=O)C(C)=O)cc3)cc2)cc1	-5	-5	·	-34	-7	·	·	·
N=c1c2c(ncn1CCCO)Oc1ccc3ccccc3c1C2c1ccccc1 (centres undefined)	0	-3	-6	19	-6	-10	15	i
COc1ccc2ccccc2c1/C=N/NC(=O)c1sc(N)c(C#N)c1C	4	-7	-1	-19	-1	2	4	i
Cn1c(SCC(=O)Nc2ccc(F)cc2)nnc1C1CC1	-3	2	-13	-6	-23	4	-5	i
CCOc1ccc(NC(=O)CNC(=O)COc2ccccc2)cc1	4	8	-7	-19	-6	-14	3	i
O=C1C(Cc2ccccc2)Nc2ncnc(N3CCN(c4ccccc4)CC3)c2N1Cc1ccc(Br)cc1 (centres undefined)	-12&-10	-8&-9	·	-36	-16&-12	·	·	·
Cc1ccc(C(=O)Nc2ccc(-c3csc(C)n3)cc2)cc1	0	-12	2	-54	·	-15	-1	i
C=CCNc1c2c(nc3nnnn13)CCCC2	4	6	-7	1	·	9	-7	i
O=C(CN(c1cccc([N+](=O)[O-])c1)S(=O)(=O)c1ccccc1)N(Cc1ccccc1)Cc1ccccc1	-4	-6	2	25	·	7	28	i
CC(C)(C)c1nc2ccc(Cl)cn2c1CC1CCCCC1	6	1	·	2	1	·	·	·
COC(=O)Nc1nc2ccc(C(=O)c3ccc(F)cc3)cc2[nH]1	·	·	2	·	·	0	61	i
Cc1ccc(N2CC(C(=O)NCCS(=O)(=O)N3CCN(c4ccc(F)cc4)CC3)CC2=O)cc1 (centres undefined)	2	2	-1	-1	-3	-5	-4	i
Cc1ccc(OCCCn2cc(C#N)c3ccccc32)cc1	-3	-5	1	-29	-7	-3	4	·
COCCCNC(=O)c1ccc(S(=O)(=O)c2ccc(C)cc2)c(NC(C)=O)c1	4	3	-6	8	-3	2	·	i
Cc1ccc(NC(=O)N2CCCc3ccccc32)cc1	1	0	-11	-12	·	-6	5	i
COc1cccc2c(=O)cc(C)n(CC(=O)Nc3ccccc3C)c12	-1	-9	-3	·	-3	-9	-6	i
COc1ccc([C@H]2CC(=O)C=C(c3ccc4ccccc4c3)C2)cc1OC	2	-1	·	12	-22	·	10	·
O=C(CCCC(=O)N(c1ccc2c(c1)OCCO2)C(C(=O)NC1CCCCC1)c1ccc(F)cc1)Nc1ccccn1 (centres undefined)	-23	-6	-8	69*	0	-9	1	i
CCC(c1nnnn1Cc1ccccc1)N1CCN(C/C=C/c2ccccc2)CC1 (centres undefined)	1	-5	·	10	-8	·	·	·
Cc1occc1-c1nnc(SCC(=O)N2CCc3ccccc32)o1	-12	2	-7	-16	-11	18	·	i
Cc1ccccc1Cn1nc(C)c(NC(=O)c2nc3n(n2)C(C(F)F)CC(C)N3)c1C (centres undefined)	3	6	-18	·	-14	-6	-7	i
CCC(=O)Nc1c(C(=O)N2CCN(c3ccccn3)CC2)cnn1-c1ccc(C)cc1	1	0	-2	·	·	-13	-6	i
The results go on:
SMILES	MT1-MMP act inh	MT1-MMP act inh RFP	eIF4H inh	HIV Env fusion	UUG fidelity	PABP polyA inh	CSC inhib	Rce1 inhib	others
CN(c1ccccc1)S(=O)(=O)c1cccc(NC(=O)CCNC(=O)c2ccco2)c1	3	-2	·	10	-9	·	·	·
Cc1ccc(C)c(N2CCN(C(=O)c3ccc(Cl)c(NC4=NC5CS(=O)(=O)CC5S4)c3)CC2)c1 (centres undefined)	4	2	·	-4	-18	·	-5	i
COCCn1nnnc1SCC(=O)c1ccc(F)cc1	-6	1	-4	24	-16	2	-9	i
O=C(CSc1nc2ccccc2c(=O)n1-c1ccc(F)cc1)NCc1ccco1	8	-7	65	·	-22	9	-15	i	eIF4H inh retest=-2;PABP polyA inh retest=-2
CC(CNS(=O)(=O)c1cc(Cl)ccc1Cl)CN(C)C (centres undefined)	5	2	-7	-54	-7	-10	·	i
CC(C)c1c(Cl)c(O)c(-c2ccccc2)c(=O)n1-c1ccc(F)cc1	5	13	-2	5	·	0	0	i
Cc1ccc(-c2cc(-c3ccccc3)no2)cc1	-1	-2	·	-240	-38	·	-13	i
Cn1c(=O)[nH]c2c(nc(-c3ccc(Cl)cc3)n2C)c1=O	-2	3	61	-13	-14	33	-9	i	eIF4H inh retest=8;PABP polyA inh retest=22
CCOc1ncccc1C(=O)NCc1ccc(C)cc1	-1	1	-8	-25	9	2	11	i
COc1ccccc1NC(=O)c1ccccc1NC(=O)c1cc(Cl)ccc1NC(=O)c1ccco1	-6	-4	-14	0	-12	1	29	i
COc1ccccc1NC(=O)O/N=C(\N)c1ccccc1	2	5	-3	-3	1	-9	-3	i
COc1cc(CC(=O)N(C)CC(=O)Nc2cc(C)ccc2C)cc(OC)c1OC	3	2	2	-6	-19	6	-1	i
COc1ccccc1Nc1nc(NCCO)nc(N2CCCC2)n1	5	1	·	-11	-4	·	-8	i
O=C(Cc1ccc2c(c1)OCCO2)N1CCN(S(=O)(=O)c2cccc(Cl)c2Cl)CC1	0	4	-10	·	8	2	-6	i
COc1ccccc1OCC(=O)Nc1c2c(nn1-c1ccc(C)cc1)CS(=O)(=O)C2	-2	0	·	22	·	·	-2	i
COc1ccccc1OCc1cc(C(=O)N2CC3C[C@@H]4CC2C[C@H](C3)C4)no1	-3	-3	·	-30	-8	·	11	i
Cc1ccc(OCc2cc(C(=O)Nc3ccccc3)oc2C)cc1	-4	1	4	·	·	6	-5	·
Cc1nc(N)nc(N/N=C/c2c(F)cccc2Cl)n1	-2	1	1	-16	-4	9	·	i
CN1C(=O)N(C)C2(CC1(C)C)CC(C)(C)N(C)C(=O)N2C	4	10	-8	·	-9	-4	-9	i
COc1ccc(CNC(=O)c2cccc(S(=O)(=O)N3CCN(c4ccc(F)cc4)CC3)c2)cc1	-3	-19	·	0	-9	·	·	·
Cc1ccc(CN2CCN(CC(=O)O)C2=O)cc1	1	6	-14	-19	·	-8	1	i
O=C(NC1CCN(Cc2ccccc2)CC1)c1[nH]c(C(F)(F)F)nc1-c1ccccc1	5&2	3&4	·	7&12	-10&-10	·	·	·
O=C1CC2(CCCCC2)Oc2ccc(F)cc21	2	3	·	28	-7	·	-17	i
C=CCN(CC(=O)NC1CCCC1)C(=O)C(=O)Nc1ccc2c(c1)OCCO2	1	-3	0	-8	-9	13	3	i
O=C(CCN1C(=O)c2ccccc2C1=O)Nc1ccc(-c2cn3ccsc3n2)cc1	9	4	1	-88	-5	5	0	i
Cn1cncc1C#Cc1ccc2cc(C3(O)CCCCC3)oc(=O)c2c1	9	0	·	15	-19	·	-25	·
NS(=O)(=O)c1ccc(CCNC(=O)c2ccc(OCC3CCCO3)cc2)cc1 (centres undefined)	-2	0	-4	-5	-35	10	1	i
CCCCN(C(=O)c1ccc(S(=O)(=O)N(C)C)cc1)c1ccccc1	-7	-4	-16	15	3	-4	14	i
COc1ccc(CC(=O)NCc2nnc(SCC(=O)Nc3cccc(F)c3)n2C)cc1	0	3	1	15	-17	22	-8	i
